# TRPML1 blocker – inhibitors of human TRPML1 channel. activity change, negative = inhibition, % (no concentration beside the values). AID 624415. actives 0.02% (n = 390,000). TRPML1-inducible cells, Ca2+ dye fluorescence, FDSS; hits give low values; inhibition of EC80 agonist-evoked calcium signal; in the data active means activity change below about -50%; inconclusive means about -30% to -50%; inactive means above about -30%;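 further: stimulus is agonist 54-4 at its EC80 concentration; on the % scale 0 is the no-effect control and ±100 the full control effect; compound concentration not given in the record; the text of the record puts the active cut at -80%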
# Target sequence (Q9GZU1 whole entry, looked up): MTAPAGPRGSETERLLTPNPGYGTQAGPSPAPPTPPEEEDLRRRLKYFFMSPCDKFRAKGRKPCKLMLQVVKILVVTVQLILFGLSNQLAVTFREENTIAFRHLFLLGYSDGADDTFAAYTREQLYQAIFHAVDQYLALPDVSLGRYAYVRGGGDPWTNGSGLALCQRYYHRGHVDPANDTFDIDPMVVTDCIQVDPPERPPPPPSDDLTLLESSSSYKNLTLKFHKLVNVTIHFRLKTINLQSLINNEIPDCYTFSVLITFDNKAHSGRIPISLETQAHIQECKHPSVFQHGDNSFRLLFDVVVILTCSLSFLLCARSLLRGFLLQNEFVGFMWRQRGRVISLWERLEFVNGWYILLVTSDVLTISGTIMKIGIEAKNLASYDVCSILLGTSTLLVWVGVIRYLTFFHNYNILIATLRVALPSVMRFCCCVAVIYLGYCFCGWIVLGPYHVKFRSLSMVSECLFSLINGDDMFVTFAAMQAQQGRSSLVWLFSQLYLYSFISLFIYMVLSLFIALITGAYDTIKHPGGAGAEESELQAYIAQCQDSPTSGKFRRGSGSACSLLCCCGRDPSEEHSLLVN
#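 Tet-induced TRPML1-DL cells loaded with Ca8 no-wash calcium dye were read kinetically on FDSS. Compound addition was followed by EC80 agonist 54-4 (4 uM final); inhibition was read over 110 s.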
# TRPML1 agonist – agonists of human TRPML1 channel; Q9GZU1; TRPML1-expressing cells, Ca2+ dye fluorescence, FDSS; host cell line not named in the record; reference of the full effect not given here; activation, % (concentration not given with the values); actives 0.12% (n = 410,000); in the data active = activation above about 50%; inconclusive = about 30% to 50%; inactive = below about 30%; further: 0% is about no effect; the text of the record puts the active cut at 80%
#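 Tetracycline-induced TRPML1-DL cells are seeded and incubated overnight before loading with a no-wash Ca2+ dye and quencher. Agonist activity is taken from the 110 s fluorescence read following compound pin-transfer on an FDSS, before EC80 54-4 challenge.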
# * hit, by the source's call. Some of the compounds tested; count on the stated rates, not on these rows.
SMILES	TRPML1 blocker	TRPML1 agonist
CCOC(=O)c1c(C)[nH]c(CCC(=O)Nc2ccc(N(CC)CC)cc2C)c1C	-23.6	3.5
COc1ccc(NC(=O)c2cc(=O)c3ccc(C)c(C)c3o2)cc1Cl	16.8	-1.0
CCC(C)NC(=O)c1ccc2c(c1)N(Cc1ccccc1)C(=O)c1ccccc1S2 (stereo not given)	72.6	-0.1
COCc1cc(C)nc2sc(C(=O)Nc3ccccc3O)c(N)c12	-11.5	0.4
CCOc1ccc(-c2cc(C(=O)N3CCN(c4cc(Cl)ccc4C)CC3)c3ccccc3n2)cc1	3.2	0.5
COc1ccc(-c2cc(C(F)(F)F)nc(SCC(=O)NCc3ccc(Cl)cc3)n2)cc1	18.5	3.2
Cc1cc(C(=O)NCc2ccccc2Cl)c2c(C)nn(-c3ccccc3)c2n1	26.8	1.4
CSc1nc2sc3c(c2c(=O)n1-c1ccc(F)c(Cl)c1)CCN(C(C)=O)C3	1.7	0.0
Cc1cc2c(cc1S(=O)(=O)NCc1ccc(F)cc1)OCC(=O)N2	-4.4	-0.6
O=C1CN(C(=O)Cc2ccccc2)C(c2ccc(F)cc2)c2cc(Br)ccc2N1 (stereo not given)	7.6	-0.8
COc1cccc(C(=O)Nc2ccc(-n3nncc3-c3ccc(Br)cc3)cc2)c1OC	63.3	1.0
COc1ccc(S(=O)(=O)n2nc(C)c(S(=O)(=O)N3CCC(C)CC3)c2C)cc1OC	4.3	0.6
Fc1ccc(Cc2cn3cc(-c4ccc(Cl)cc4)nc3s2)cc1	-4.3	-0.1
O=C(NCc1ccccc1Cl)c1ccc(NC(=O)c2nsc3ccccc23)cc1	10.7	2.0
O=C(COCc1cc(-c2ccc(F)cc2)on1)Nc1cccc(C(F)(F)F)c1	8.2	2.1
O=S(=O)(c1ccccc1)N1CCC(c2ccncc2)CC1	6.8	-0.1
Cc1cc2oc(C(=O)N(Cc3ccccc3)C3CCS(=O)(=O)C3)cc(=O)c2cc1C (stereo not given)	5.6	0.4
CCn1nc(C)c2c(-c3ccccc3)cc(=O)n(C(C)C(=O)NCc3cccc(OC)c3)c21 (stereo not given)	19.2	2.3
Cc1ccc(N2CC(c3nnc(Cc4ccc(Cl)cc4)o3)CC2=O)cc1 (stereo not given)	11.8	0.6
CCOC(=O)c1c(C)[nH]c(C)c1S(=O)(=O)NCC(=O)Nc1cc(C)ccc1OC	21.2	-0.9

# Quoted at random: 4 records from the list.
SMILES	TRPML1 blocker	TRPML1 agonist
CCOC(=O)c1c(C)[nH]c(CCC(=O)Nc2ccc(N(CC)CC)cc2C)c1C	-23.6	3.5
Cc1cc2c(cc1S(=O)(=O)NCc1ccc(F)cc1)OCC(=O)N2	-4.4	-0.6
COc1ccc(NC(=O)c2cc(=O)c3ccc(C)c(C)c3o2)cc1Cl	16.8	-1.0
Cc1ccc(N2CC(c3nnc(Cc4ccc(Cl)cc4)o3)CC2=O)cc1 (stereo not given)	11.8	0.6

# Continued.
SMILES	TRPML1 blocker	TRPML1 agonist
Cc1ccc(OCc2nc3ccccc3n2CC(C)C)cc1	11.5	2.4
COc1ccc(N(CC(C)C)S(=O)(=O)c2nnc(NC(=O)c3cccs3)s2)cc1	18.2	2.2
O=C(NCc1cccs1)c1ccc2c(c1)N(Cc1ccccc1Cl)C(=O)c1ccccc1S2	57.9	2.0
COc1cc(-c2nc(SCC(=O)Nc3ccc(C)cc3)c(-c3ccc(F)cc3)[nH]2)cc(OC)c1OC	13.0	-0.1
COc1ccc(OC)c(-c2cc(C(=O)Nc3ccc(C)c(C)c3)no2)c1	15.9	1.5
CCOc1ccc(NC(=O)c2sc(-n3nc(C)c(CCC(C)C)c3C)nc2C)cc1	-11.9	1.6
CCOc1ccc(-c2nc3c(C#N)c[nH]n3c2NC2CCCC2)cc1	22.4	0.0
CCOC(=O)c1c(Nc2ccc(O)cc2)nnc(-c2ccccc2)c1-c1ccccc1	25.8	2.7
CC(=O)Nc1c(C)nn(-c2ccccc2)c1N1CCC(C(=O)NCc2cccc(F)c2)CC1	-2.2	0.7
CC(NC(=O)Nc1ccccc1C(F)(F)F)c1c(-n2cccc2)sc2c1CCCC2 (stereo not given)	28.4	2.8
COc1ccc(-c2noc(-c3ccc(NCC4CCCO4)c([N+](=O)[O-])c3)n2)cc1 (stereo not given)	-7.9	-0.8
O=C(Nc1ccc(F)cc1F)C(Cc1ccccc1)N1Cc2ccccc2C1=O (stereo not given)	24.7	0.8
CCC(=O)Oc1c(Sc2ccc(C)cc2)c(C)nn1-c1ccccc1	-8.3	0.2
CC(=O)Nc1ccc(S(=O)(=O)NCc2ccc3c(c2)CCN3C(C)=O)cc1	1.3	2.1
CCOC(=O)C1CCN(C(=O)Cn2nc(CC)n3c(cc4sccc43)c2=O)CC1	-9.0	0.5
COc1ccc(-c2onc(C)c2C)cc1S(=O)(=O)NCC(C)c1ccccc1 (stereo not given)	28.5	1.7
CC(=O)N1CCCc2cc(S(=O)(=O)N(C)CC(=O)Nc3cccc(Cl)c3C)ccc21	4.3	-0.7
COc1ccc(-c2cc(=O)n3[nH]cnc3n2)cc1	-13.2	-0.3
O=c1c2oc3ccccc3c2n(Cc2ccc(Cl)cc2)c(=O)n1Cc1ccco1	-0.6	0.0
COc1ccc(CNC(=O)CSc2n[nH]c(-c3ccc(OC)cc3)n2)cc1	-0.3	2.4

# The list goes on.
SMILES	TRPML1 blocker	TRPML1 agonist
Cc1cccc(N(C)C(=O)CS(=O)(=O)c2cccc3nsnc23)c1	2.3	0.4
COc1ccccc1CNc1ncnc2c1nc1n2CCCC1	21.3	0.0
COc1cc(CN(C(=O)c2ccccc2[N+](=O)[O-])c2ccccn2)cc(OC)c1OC	-17.0	-0.8
Cc1ccc2oc(-c3ccc(C)c(NC(=O)c4ccc(-c5ccccc5[N+](=O)[O-])o4)c3)nc2c1	15.7	1.1
CCOC(=O)C1CCCN(C(=O)Cn2c(=O)cc(C)c3c(C)nn(C)c32)C1 (stereo not given)	6.3	-0.8
CN1CCc2nc3sc(C(=O)Nc4ccccc4OC(F)(F)F)c(N)c3cc2C1	11.9	-0.2
O=c1[nH]c(SCc2cccc(Cl)c2)nc2c1CCC2	18.8	2.6
COc1ccc(/C=C/C(=O)Nc2nc3n(n2)C(c2ccccc2)C=C(c2ccc(Cl)cc2)N3)cc1 (stereo not given)	-7.3	-0.4
Cc1[nH]c2ccc(C(=O)Nc3ccc(F)cc3)cc2c1C	-8.8	0.1
CCS(=O)(=O)c1ncc(Cl)c(C(=O)Nc2c(C(=O)Nc3cccc(C)c3)oc3ccccc23)n1	-4.8	1.0
COc1ccccc1CCNC(=O)C(=O)NCC(c1ccco1)S(=O)(=O)c1ccc(F)cc1 (stereo not given)	21.4	2.2
Cc1ccccc1OCC(=O)Nc1ccc2[nH]c(=O)sc2c1	-12.6	2.2
C=CCc1c(C)nc2nc(SCC(=O)Nc3ccc(OCC)cc3)nn2c1C	-7.6	-0.6
COc1ccc(-c2cn3nc(N4CCCC(C(=O)Nc5cccc(OC)c5)C4)sc3n2)cc1 (stereo not given)	-0.9	-0.4
Cc1nn2c(-c3cccc(NC(=O)c4ccc(Cl)cc4)c3)nnc2c2ccccc12	7.9	2.2
Cc1ccc(-n2nnc(-c3nsc(NC(=O)c4ccccc4C)n3)c2C)cc1Cl	4.8	-0.5
COc1ccc(CNC(=O)CCc2nc(-c3ccc(C)cc3)no2)c(OC)c1	8.9	-0.1
CCCCNC(=O)C(CC)Sc1nnc(-c2ccc(F)cc2)c(-c2ccc(F)cc2)n1 (stereo not given)	9.1	1.7
CCOc1ccc(NC(=O)Cn2c(=O)n(CCCCC(=O)NCCc3ccc(Cl)cc3)c(=O)c3ccccc32)cc1	2.4	-0.6
Cc1ccc(Cn2c(CNS(=O)(=O)c3ccc(C(C)(C)C)cc3)nc3cccnc32)cc1	-3.9	0.6

# Look-ups from the entries so far:
# Result of `Cc1[nH]c2ccc(C(=O)Nc3ccc(F)cc3)cc2c1C` under TRPML1 agonist: 0.1
# Result of `COc1ccc(CNC(=O)CCc2nc(-c3ccc(C)cc3)no2)c(OC)c1` under TRPML1 agonist: -0.1
# Result of `Cc1ccccc1OCC(=O)Nc1ccc2[nH]c(=O)sc2c1` under TRPML1 blocker: -12.6
# Result of `CCS(=O)(=O)c1ncc(Cl)c(C(=O)Nc2c(C(=O)Nc3cccc(C)c3)oc3ccccc23)n1` under TRPML1 agonist: 1.0
# Result of `CCCCNC(=O)C(CC)Sc1nnc(-c2ccc(F)cc2)c(-c2ccc(F)cc2)n1` (stereo not given) under TRPML1 blocker: 9.1
# Result of `Cc1ccc(-n2nnc(-c3nsc(NC(=O)c4ccccc4C)n3)c2C)cc1Cl` under TRPML1 agonist: -0.5

# Additional structures follow.
SMILES	TRPML1 blocker	TRPML1 agonist
Cc1cc(C)cc(Oc2coc3c(CN4CCN(C)CC4)c(O)ccc3c2=O)c1	-8.4	-1.0
CCOc1ccc(C2Nc3ccccc3-c3nnc(SCc4ccccc4)nc3O2)cc1OC (stereo not given)	-16.0	2.0
CCCNC(=O)c1cc2n(n1)CCCN(Cc1ccc(F)cc1)C2=O	-6.4	0.6
COC(=O)c1ccc(Cn2nnc3sc4c(c3c2=O)CCC(C)C4)cc1 (stereo not given)	-3.0	-0.8
Cc1ccccc1CNC(=O)c1ccc(-c2nc(CS(=O)(=O)c3ccccc3)c(C)o2)cc1	-2.9	1.6
O=C(COc1ccc(F)cc1)NCc1ccc2c(c1)CCN2C(=O)c1ccccc1	12.2	-0.1
CCOc1ccccc1NC(=O)Cn1c(=O)nc(-c2ccccc2F)c2cc(Cl)ccc21	1.8	2.4
COc1cccc(C(=O)c2cn(CC(=O)NCCc3ccccc3)c3nc(C)ccc3c2=O)c1	-16.9	2.7
COc1cccc(CNC(=O)C2(c3cccs3)CCOCC2)c1	14.6	-0.3
Cc1oc(-c2ccccc2Cl)nc1CSc1nc2ncccc2[nH]1	30.4	1.1
Cc1ccc(-n2ncc(C(=O)N3CCN(c4cccc(C)c4)C(C)C3)c2C2CCN(C(=O)OC(C)(C)C)CC2)cc1 (stereo not given)	-28.0	73.0*
O=C(Oc1ccccc1F)c1nc(SCc2ccccc2F)ncc1Cl	2.4	-0.7
CC(NC(=O)CN1C(=O)COc2ccc(S(=O)(=O)N3CCCCCC3)cc21)c1ccccc1 (stereo not given)	33.5	-0.3
CCOC(=O)c1ccccc1NC(=O)c1cn(CC(C)C)c(=O)c2cc(OC)c(OC)cc12	-11.7	0.1
Cc1cccc2c1-c1sc(C(=O)N3CCN(c4ccc(F)cc4)CC3)cc1CO2	-22.4	-0.1
CCOC(=O)c1ccc(NC(=O)NCCOCCn2c(=O)oc3ccccc32)cc1	-17.4	-0.6
COc1ccc(Cl)cc1NC(=O)CSC1=Nc2ccccc2C2=NC(CC(=O)NCc3cccs3)C(=O)N12 (stereo not given)	-16.6	1.3
O=C(C1COc2ccccc2O1)N1CCN(c2nc3c(F)cccc3s2)CC1 (stereo not given)	-15.1	2.0
O=S(=O)(c1cc(Br)c(Br)s1)N1CCN(c2ccccc2)CC1	-1.3	0.1
CCOc1ccc(-n2cc(-c3ccccc3)c3c(N4CCN(c5ccccc5OC)CC4)ncnc32)cc1	4.7	-0.1

# (cont.)
SMILES	TRPML1 blocker	TRPML1 agonist
CCOc1ccc(NC(=O)CSC2=Nc3ccccc3C3=NC(CC(=O)NCc4ccco4)C(=O)N23)cc1 (stereo not given)	51.5	1.6
CCC(=O)N1c2ccccc2CC1C(=O)NCCN1CCN(c2cccc(C(F)(F)F)c2)CC1 (stereo not given)	-7.7	0.7
CCOC(=O)CSc1nc(-c2ccc(Cl)cc2)cc(C(F)(F)F)c1C#N	-7.3	4.7
COc1ccc(Cn2c(CO)cnc2SCc2ccc(F)cc2)cc1	-10.6	3.4
O=C(NC1CCCCC1)c1ccc(CSc2nc3ccncc3n2Cc2ccc(F)cc2)cc1	-0.6	-0.5
CCc1ccccc1NC(=O)Cn1c(=O)n(CCCS(=O)(=O)C2CCCCC2)c(=O)c2ccccc21	-20.6	1.7
Cc1cccc(N2CCN(C(=O)c3ccc(NC(=O)c4nsc5ccccc45)cc3)CC2C)c1 (stereo not given)	-14.8	1.9
CCCCCn1c(=O)[nH]c2cc(C(=O)NCc3ccc(OC)cc3)ccc2c1=O	-2.4	0.2
Cc1ccc(NC(=O)c2cc(S(=O)(=O)N3CCc4ccccc43)ccc2F)cc1Cl	13.4	1.3
Cc1ccc(-c2cc(NC(=O)COc3ccc(Cl)cc3C)on2)cc1	2.8	-0.5
Cc1ccc2oc(=O)n(CCNC(=O)Nc3ccccc3C)c2c1	-13.1	-0.9
O=S(=O)(NCCc1csc2nc(-c3ccccc3)nn12)c1cccs1	-5.0	2.4
CCOCCCNC(=O)C(c1ccc(OC)cc1)N(Cc1cccs1)C(=O)c1ccc(NC(C)=O)cc1 (stereo not given)	9.6	0.6
Cc1ccc(Cn2cnc3c(oc4ccccc43)c2=O)cc1	0.1	-1.0
Cc1ccc(-c2nc3cccnc3s2)cc1NC(=O)Cc1ccccc1	-7.7	2.9
Cc1cn2c(=O)cc(COC(=O)c3ccc(NC(=O)COc4ccccc4C)cc3)nc2s1	-19.0	0.7
CCOC(=O)c1ccccc1NC(=O)c1cc2c(=O)oc3ccc(C)cc3c2s1	-8.1	1.2
COc1cc(C(=O)N2CCN(CCc3ccncc3)CC2)cc(OC)c1OC	4.4	3.3
COc1ccc(CCNC(=O)Cn2nc(C)n3c(cc4cc(F)ccc43)c2=O)cc1OC	-10.2	-1.0
O=C(NCc1cccc(F)c1)C1CCN(c2nn3cc(-c4ccc(F)cc4)nc3s2)CC1	12.2	0.4
